# HPGD block = qHTS Assay for Inhibitors of HPGD (15-Hydroxyprostaglandin Dehydrogenase) | purified HPGD, NADH fluorescence kinetic, PGE2 substrate | Potency, µM, for inactives: at the top dose activity change, negative = inhibition, hits mostly inhibitors | hit rate 4.3% among 150,000; active = well fitted inhibition curve with a large enough effect (not every such curve was filed as active); inconclusive = small, poorly fitted or top-dose-only effect, or another doubt; inactive = no such curve, though single readings can be large or run the other way;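 note: top concentration of the series not given in the record; plate controls included wells without enzyme; inactives centre near -10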
# Target sequence (P15428 whole entry, looked up): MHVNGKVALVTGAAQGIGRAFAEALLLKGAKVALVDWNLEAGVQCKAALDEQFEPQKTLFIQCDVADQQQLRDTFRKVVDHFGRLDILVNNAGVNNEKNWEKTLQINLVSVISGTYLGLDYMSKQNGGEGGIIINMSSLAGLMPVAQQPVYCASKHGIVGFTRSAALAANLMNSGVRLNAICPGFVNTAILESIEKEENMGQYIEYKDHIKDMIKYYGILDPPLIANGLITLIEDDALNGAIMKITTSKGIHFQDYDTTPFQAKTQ
#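 NADH formation kinetics: reaction with 30 uM PGE2 and 1 mM NAD+ (final), 20 nM enzyme, Tris-HCl pH 8 with Tween 20, after 15 min compound preincubation at room temperature. Fluorescence change, last versus first of five reads.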
# * marks the source's active call; other numbers are inactive results; ? = inconclusive. % is set by controls: 0 for no effect and ±100 for the full control effect; potency is the fitted concentration of half-maximal effect. An excerpt, so the mix of outcomes need not match the whole.
No.	Structure	HPGD block
1	CCOc1ccc2nc(COC(=O)c3cccs3)c(C(=O)c3ccccc3)[n+]([O-])c2c1	-26%
2	O=C(Nc1ccccc1)Nc1nc(-c2ccc(F)cc2)cs1	-8%
3	CCOC(=O)N1CCN(C(=O)CN(c2ccc3c(c2)OCO3)S(C)(=O)=O)CC1	-12%
4	COc1ccc(C(c2c(C)[nH]n(C(N)=S)c2=O)C(C#N)C#N)cc1 (centres undefined)	32µM*
5	COc1cc2cc(CN(CCc3ccccc3C)C(=S)NCCCN(C)C)c(=O)[nH]c2cc1OC	?
6	COc1cccc(C(=O)OCc2ccccc2C#N)c1O	-15%
7	CCOc1ccc2nnnn2n1	-15%
8	Nc1nc(=O)c2[nH]cnc2n1O	-8%
9	COc1cccc(C(C(=O)NC2CCCC2)N(Cc2ccccc2OC)C(=O)c2ccco2)c1 (centres undefined)	-1%
10	O=c1c2c3c(sc2ncn1/N=C/c1ccco1)CCCC3	-4%
11	CCOC(=O)CN1N=C(/C=C/c2ccc(OC)cc2)CCC1=O	-24%
12	COc1ccc(NC(=S)NCC2CCCO2)c(OC)c1 (centres undefined)	-29%

# Other records follow:
No.	Structure	HPGD block
13	C=CCOc1c(Br)cc(CNc2nccs2)cc1OC	-7%
14	CN(C(=O)c1cccc(C#N)c1)c1nnc(-c2ccccn2)s1	-3%
15	O=CN1CCN(C2CC(=O)N(c3ccc4c(c3)OCO4)C2=O)CC1 (centres undefined)	-5%
16	Fc1ccc(-c2nnc(Cc3nnc(-c4ccc(F)cc4)o3)o2)cc1	-19%
17	COc1ccccc1NC(=O)Cc1nn(C)c(=O)c2ccccc12	-10%
18	c1ccc2cc(OCCN3CCCC3)ccc2c1	0%
19	Oc1ccc(/C=N/Nc2ncc(Br)cn2)c(O)c1	?
20	C[C@@H]1C[C@H](Nc2ccccc2)c2ccccc2N1C(=O)c1cccnc1	-2%
21	O=C1CN(C(=O)COc2ncnc3ccccc23)c2ccccc2N1	-27%
22	O=C(NCc1ccc(F)cc1)C1CCCN(S(=O)(=O)c2cccnc2)C1 (centres undefined)	-15%
23	O=C(O)[C@H](Cc1c[nH]c2ccccc12)N1C(=O)c2ccccc2C1=O	-1%
24	O=C1c2cccc3cccc(c23)C(=O)N1CCCN(C(=O)c1cccs1)c1cccc(F)c1	?

# Other results follow.
No.	Structure	HPGD block
25	Cc1cc(C)cc(NC(=O)c2cc(C)nn2C)c1	-1%
26	Cc1ccc2c(c1)NCCO2	-8%
27	O=C(O)C1CSC(c2ccccc2Cl)N1C(=O)c1ccc(Cl)cc1 (centres undefined)	-13%
28	CCOC(=O)C1=C(SCC)c2cc3c(n2C1=O)CCCC3	-5%
29	CC[C@@H](c1ccc2cc(O)ccc2c1)C(C)(C)C(=O)O	-6%
30	COc1cc2ccc(=O)oc2cc1O	?
31	C/C=C(\C)C(=O)C[Si](C)(C)c1ccccc1	-1%
32	Cc1ccc(-c2c3c(=O)n(C)c(=O)n(C)c3cn2CCCN2CCOCC2)cc1	-2%
33	Cc1cc(C(=O)CSc2nncs2)c(C)n1-c1ccc2c(c1)OCO2	-23%
34	COc1ccc(CN2C3CCCC2CC(NC(=O)Nc2cccc(C)c2)C3)cc1 (centres undefined)	-15%
35	CCOc1ccc(CC(=O)NNC(=S)Nc2ccccc2)cc1Br	-15%
36	C/C(Cn1nnc([N+](=O)[O-])n1)=N\NC(=O)c1ccccc1	-11%

# Following part
No.	Structure	HPGD block
37	CN(Cc1ccccc1)C(=O)CN(Cc1ccccc1)S(C)(=O)=O	-3%
38	CN(C)CCNc1oc(-c2ccccc2F)nc1C#N	?
39	COc1ccc(S(=O)(=O)N(C)CC(=O)Nc2ccc(F)cc2)cc1	-3%
40	Cc1cc(C)n(C(=O)CCCCCCCCC(=O)n2nc(C)cc2C)n1	-6%
41	N#CC(=C=[N-])c1nc2ccccc2nc1-[n+]1ccccc1	-13%
42	CCOC(=O)c1[nH]c(C)c(C(=O)Nc2ccc(C)c(F)c2)c1C	-11%
43	CC(C)Cn1c2ccccc2c2cc(C(=O)O)ccc21	-11%
44	O=C(O)COc1ccccc1C1C2C(=O)N(c3ccccc3)C(=O)C2ON1c1ccccc1 (centres undefined)	-6%
45	O=C(Cn1cc(C(=O)c2cccs2)c2ccccc21)NC1CCCCC1	-27%
46	Cc1cccc(-n2c(SCc3cc(=O)n4c(C)cccc4n3)nc3[nH]ncc3c2=O)c1	-5%
47	CC1CCCN(C(c2cccs2)c2nnnn2Cc2ccccc2)C1 (centres undefined)	-18%
48	CN1CCNC(=O)C1CC(=O)O (centres undefined)	-4%

# Following part.
No.	Structure	HPGD block
49	c1ccc2cc(NCNc3ccc4ccccc4c3)ccc2c1	-16%
50	Cc1cc(Oc2ccc(C(C)(C)C)cc2)nc(N2CCOCC2)n1	-8%
51	Oc1ccc(Br)cc1/C=N/N1CCN(Cc2ccccc2)CC1	3%
52	CCOC(=O)Cc1csc(NC(=O)CCN2C(=O)c3ccccc3C2=O)n1	-6%
53	O=C1c2cccnc2C(O)N1Cc1cccs1 (centres undefined)	-6%
54	Cc1cc2c(c(C)nn2-c2ccccc2)c(=O)o1	-2%
55	CC(C)(C)c1ccc(C2C3=C(CCCC3=O)NC3=C2C(=O)c2ccccc23)cc1 (centres undefined)	-1%
56	COc1ccc(NC(=O)Nc2cccc(C(=O)N3CCOCC3)c2)cc1OC	-6%
57	COc1ccc(C(=O)CSc2nc(C)cc(=O)[nH]2)cc1	-5%
58	Cc1sc2nc(SCC(=O)NCc3ccco3)[nH]c(=O)c2c1C	7.9µM*
59	N#CC1(C#N)C(c2ccccc2)OC23CCCCC2C1(C#N)C(=N)O3 (centres undefined)	?
60	CCn1c(O)c(/C=N/n2cnnc2)sc1=S	-15%

# In the list so far, 6 have a COOH group.
No.	Structure	HPGD block
23	O=C(O)[C@H](Cc1c[nH]c2ccccc12)N1C(=O)c2ccccc2C1=O	-1%
27	O=C(O)C1CSC(c2ccccc2Cl)N1C(=O)c1ccc(Cl)cc1 (centres undefined)	-13%
29	CC[C@@H](c1ccc2cc(O)ccc2c1)C(C)(C)C(=O)O	-6%
43	CC(C)Cn1c2ccccc2c2cc(C(=O)O)ccc21	-11%
44	O=C(O)COc1ccccc1C1C2C(=O)N(c3ccccc3)C(=O)C2ON1c1ccccc1 (centres undefined)	-6%
48	CN1CCNC(=O)C1CC(=O)O (centres undefined)	-4%

# Values by screen from above.
# Compounds 45–55 in HPGD block read -27%, -5%, -18%, -4%, -16%, -8%, 3%, -6%, -6%, -2%, -1%

# Next section.
No.	Structure	HPGD block
61	CCOC(=O)CSc1n[nH]c(NC(=O)c2cccc(C(F)(F)F)c2)n1	-18%
62	CC(=O)c1cccc(NC(=O)COC(=O)[C@@H](NC(=O)OCc2ccccc2)C(C)C)c1	-14%
63	CC(NC(=O)c1ccc(S(=O)(=O)N(C)C)cc1)c1ccccc1 (centres undefined)	-3%
64	CN(C)C(=O)c1c([N+](=O)[O-])ncn1C	-5%
65	O=C(Cn1cnc2c(cnn2-c2ccc(F)cc2)c1=O)N1CCCc2ccccc21	-32%
66	CCCCC(=O)Nc1ccc2c(c1)nc1n2CCSC1	32µM*
67	Cc1cccc(-n2nc3c([n+]2[O-])CCc2nonc2-3)c1C	-11%
68	CC(/C=N\N1CCN(c2ccc(Cl)cc2)CC1)=C\c1ccccc1	-11%
69	Cc1nnc(SCC(=O)OC2CC(C)CCC2C(C)C)[nH]c1=O (centres undefined)	-6%
70	Cc1ccc(C(=O)NCc2cccs2)cc1S(=O)(=O)N1CCCCC1	1%
71	CCc1cccc(CC)c1NC(=O)COn1nnc2ccc(C(F)(F)F)cc21	-8%
72	O=C(NCCO)c1ccccc1O	?

# Next entries
No.	Structure	HPGD block
73	Cc1ccc(-c2csc3nnc(SCC(=O)Nc4cccc(C)n4)n23)cc1	-12%
74	CCOC(=O)N1CCN(C(=O)NC2CCCCC2)CC1	-14%
75	COc1ccccc1NC(=O)CC(NC1CCCCC1)C(=O)O (centres undefined)	2%
76	O=C(Nc1cccc(Cl)c1)N(CCN1CCOCC1)Cc1ccccc1F	-17%
77	Cc1sc(NC(=O)c2ccco2)c(C(c2cccnc2)N2CCN(C)CC2)c1C (centres undefined)	-2%
78	CCSc1nnc(NC(NC(C)=O)(C(F)(F)F)C(F)(F)F)s1	-10%
79	O=C(NCc1cccs1)C1CCC(CNS(=O)(=O)c2cccs2)CC1 (centres undefined)	-8%
80	CS(=O)(=O)N1CCN(c2ccc(NC(=O)c3ccc(-c4ccc(Cl)cc4)o3)cc2)CC1	-5%
81	COc1ccc(-c2ccc(C3C(C#N)=C(N)Oc4n[nH]c(C)c43)o2)cc1 (centres undefined)	-28%
82	O=C(Nc1nnc(C23CC4CC(CC(C4)C2)C3)s1)c1ccco1	-12%
83	O=C(CCCn1c(=O)[nH]c2ccccc2c1=O)NC1CCCCCC1	?
84	CCc1c(C)nc2c(OC)cccc2c1SCCC(=O)O	?

# (cont.)
No.	Structure	HPGD block
85	COc1cccc(NC(=O)Cn2nnc(C(=O)Nc3ccccc3)c2N)c1	-9%
86	CCCCCCC1CC(C)(C(=O)CNc2nncs2)OC1=O (centres undefined)	-3%
87	CCN1C(=O)C2C(c3ccccc3F)NC(Cc3ccc(O)cc3)(C(=O)OC)C2C1=O (centres undefined)	0%
88	OC(COc1ccccc1)Cn1c2ccccc2c2ccccc21 (centres undefined)	-19%
89	CCCCOC(=O)C1Cc2ccccc2C(=O)O1 (centres undefined)	-8%
90	CCOc1ccc(C2=Cc3cc(OC)c(OC)cc3C(=C(Cl)Cl)O2)cc1	-13%
91	COC(=O)CC1C(C)(C)C(OC(C)=O)[C@@]2(O)C=C3C4CC(=O)OC(c5ccoc5)[C@]4(C)CCC3[C@@]1(C)C2=O (some centres undefined)	0%
92	CC(C)(C)c1[nH]c2ccccc2c1/C=N/O	2µM*
93	Cc1ccc(-c2nn(-c3ccccc3)cc2/C=N/NC(=O)c2ccc3c(c2)OCO3)cc1	-27%
94	COc1ccccc1/C=C/C=C1N=C(/C=C/c2ccc(Cl)cc2)OC/1=O	-3%
95	CCOC1(OCC)N=C(N)C2(C#N)C(c3ccc(NC(C)=O)cc3)C12C#N (centres undefined)	-13%
96	CCC1=C(C[C@H]2NCCc3ccccc32)C[C@@H]2c3cc(OC)c(OC)cc3CCN2C1	-9%

# Continuation.
No.	Structure	HPGD block
97	N#Cc1ccc(-c2ccco2)nc1SCC(=O)c1ccc(Cl)cc1	-20%
98	O=C(CSc1nnc(CNc2ccc(F)cc2)n1CC1CCCO1)Nc1ccccc1 (centres undefined)	-4%
99	COc1cccc(C(=O)NCc2ccc(N3CCN(C(=O)OC(C)(C)C)CC3)cc2)c1	-3%
100	COc1ccccc1-c1nc(C#N)c(N2CCN(C(c3ccccc3)c3ccccc3)CC2)o1	?
101	O=C1Cc2ccccc2Sc2cc(OCCCN3CCCCC3)ccc21	-15%
102	CN(C)CCN(Cc1ccccc1)c1nccc(N(C)C)c1C#N	-18%
103	Cc1cc(N2CCN(C(=O)c3ccco3)CC2)n2ncnc2n1	-15%
104	Cc1ccccc1OCC(=O)Nc1ccc(S(=O)(=O)Nc2ccccn2)cc1	-13%
105	CS(=O)(=O)N(CC(=O)N1CCN(Cc2ccc3c(c2)OCO3)CC1)Cc1ccc(Cl)cc1	-14%
106	Cc1cc(C)n2nc(SCc3nnc(SCc4ccccc4Cl)s3)nc2n1	28µM*
107	Cc1csc(NC(=O)c2cc3c(s2)CCC3)n1	7.9µM*
108	Cc1c(C)c2c(c(C)c1O)CCC(C)(CN1CCN(c3cc(N4CCCC4)nc(N4CCCC4)n3)CC1)O2 (centres undefined)	-11%

# Fetched one by one from the entries so far (6):
No.	Structure	HPGD block
105	CS(=O)(=O)N(CC(=O)N1CCN(Cc2ccc3c(c2)OCO3)CC1)Cc1ccc(Cl)cc1	-14%
99	COc1cccc(C(=O)NCc2ccc(N3CCN(C(=O)OC(C)(C)C)CC3)cc2)c1	-3%
103	Cc1cc(N2CCN(C(=O)c3ccco3)CC2)n2ncnc2n1	-15%
98	O=C(CSc1nnc(CNc2ccc(F)cc2)n1CC1CCCO1)Nc1ccccc1 (centres undefined)	-4%
101	O=C1Cc2ccccc2Sc2cc(OCCCN3CCCCC3)ccc21	-15%
102	CN(C)CCN(Cc1ccccc1)c1nccc(N(C)C)c1C#N	-18%

# Next part
No.	Structure	HPGD block
109	CC(=O)Nc1ccc(/C(C)=N/NC(=O)c2ccccc2Cl)cc1	-16%
110	O=C(CCC1CCCC1)NCc1cccs1	-27%
111	O=C(Nc1ccn(Cc2ccccc2)n1)c1n[nH]c([N+](=O)[O-])c1Cl	28µM*
112	CCCCSc1nc2c(cnn2-c2ccc(C)c(C)c2)c(=O)[nH]1	-15%
113	CN(C)C(=O)N1CCC(C(=O)NC2CCCCCCC2)CC1	-13%
114	COc1ccc(C2C(C(C)=O)=C(O)C(=O)N2CCCn2ccnc2)cc1OC (centres undefined)	-10%
115	O=C(O)CSc1nnc(CNc2ccc(Cl)cc2)n1Cc1ccccc1	-14%
116	CS(=O)(=O)N1CCC[C@@]2(CCN(C(=O)Nc3cccc(C#N)c3)C2)C1	-10%
117	O=c1oc2cc(O)ccc2c2c1CCCC2	?
118	COc1ccc(-c2coc3cc(O)ccc3c2=O)cc1	?
119	COc1ccc(-n2c(CNC(=O)c3cc(OC)c(OC)c(OC)c3)n[nH]c2=S)cc1	-17%
120	COc1cc2nc(C3CCC3)n(NC(=O)COc3ccccc3)c(=O)c2cc1OC	-8%

# Next entries
No.	Structure	HPGD block
121	Cc1ccc(Nc2cc(=O)n(C3CCCCC3)c(=O)[nH]2)cc1C	-4%
122	CCNC(=S)N/N=C/c1cccs1	-10%
123	Cc1nonc1NC(=O)OC1CCCCC1	-19%
124	O=C(CC1OC(=O)c2ccccc21)c1ccco1 (centres undefined)	-17%
125	O=C(Nc1nnc(C2CCCCC2)s1)c1ccco1	-13%
126	O=c1[nH]c(CSc2nc(-c3ccc(F)cc3)cs2)nc2ccccc12	-3%
127	O=S(=O)(c1cccs1)N1CCc2ccccc21	-6%
128	O=C(CN1CCC(C(=O)c2ccc(F)cc2)CC1)Nc1ccccc1	-5%
